2A StopGo – High Throughput Screening for Foot and Mouth Disease Virus Antivirals; actives 1.2% (n = 410,000); AID 1159524, 2015; Potency, µM (top dose mostly 57.9 µM), for inactives: top-dose signal change, negative = less light; human cells with a luciferase reporter of 2A StopGo recoding; control for the full effect not named in the record; active = well fitted falling curve with a large enough effect; inconclusive = small, poorly fitted or top-dose-only effect; inactive = no such curve, though single readings can be large or run the other way; tested in HEK293T cells; further: on the % scale 0 is the no-effect control and ±100 the full control effect; nearly all actives have a fitted effect of over 45% in size; luciferase light after 4 h
SARS PLpro yeast – qHTS of Yeast-based Assay for SARS-CoV PLP. Potency, µM (series often up to 32.9 µM), for the others: top-dose activity, positive = growth rescue. actives 0.19% (n = 330,000). S. cerevisiae expressing SARS-CoV PLpro, growth rescue; control for the full effect not named in the record. AID 485353, 2010; active means well fitted rising curve with a large enough effect; inconclusive means small, poorly fitted or top-dose-only effect; inactive means no such curve, though single readings can be large or run the other way; further: 0% is about no effect; nearly all actives have a fitted effect of over 55% in size; growth read by luminescence after 48 h
NS1 function inh – qHTS Assay for Inhibitors of Influenza NS1 Protein Function; S. cerevisiae slowed by influenza A NS1, growth recovery by OD600; Potency, µM (titrated, usually from 46.1 µM), for inactives: at the top dose activity, positive = more growth; actives 0.4% (n = 270,000); active means well fitted rising curve with a large enough effect; inconclusive means small, poorly fitted or top-dose-only effect; inactive means no such curve, though single readings can be large or run the other way; further: nearly all actives have a fitted effect of over 50% in size
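Recovery from NS1-induced slow growth read by OD600 in budding yeast switched to galactose assay medium (pH 6.0, -URA) at 1:100 dilution. Compound 23 nl per well; the matching strain lacking NS1 serves as control.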
Lassa entry inh – qHTS for Inhibitors of binding or entry into cells for Lassa Virus. Lassa virus pseudotype entry inhibition, cell reporter; control for the full effect not named in the record. AID 540256, 2011. actives 1.2% (n = 300,000). Potency, µM (titrated, usually from 37.9 µM), without a hit: top-dose activity change, negative = inhibition, most hits filed as inhibitors; active means well fitted inhibition curve with a large enough effect; inconclusive means small, poorly fitted or top-dose-only effect, or effect the other way; inactive means flat fitted curve, though single readings scatter; tested in HEK293 cells; further: on the % scale 0 is the no-effect control and ±100 the full control effect; nearly all actives have a fitted effect of over 50% in size; luciferase read-out
Marburg entry inh – qHTS for inhibitors of binding or entry into cells for Marburg Virus; AID 540276, 2011; Potency, µM (series often up to 37.8 µM), for the others: top-dose activity change, negative = inhibition, usual class: inhibitors; Marburg virus pseudotyped entry inhibition, cell reporter; control for the full effect not named in the record; about a third of the inactives were read at about 46 µM; actives 1.8% (n = 300,000); active = well fitted inhibition curve with a large enough effect; inconclusive = small, poorly fitted or top-dose-only effect, or effect the other way; inactive = flat fitted curve, though single readings scatter; tested in HEK293 cells; about a fifth of its hits are not listed in these tables; further: on the % scale 0 is the no-effect control and ±100 the full control effect; luciferase read-out
Cruzain Triton – qHTS Assay for Promiscuous and Specific Inhibitors of Cruzain (with detergent); Cruzipain (Trypanosoma cruzi), P25779; purified cruzain, Z-FR-AMC fluorescence, 0.01% Triton; Potency, µM, for the others: max response, negative = inhibition, actives largely listed as inhibitors; actives 0.43% (n = 200,000); AID 1478, 2009;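 further: plate controls were neutral wells for no effect and buffer without enzyme for full effect; nearly all actives have a fitted effect of over 40% in size; top concentration of the series not given in the record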
Target sequence (P25779 123-467 limits assumed): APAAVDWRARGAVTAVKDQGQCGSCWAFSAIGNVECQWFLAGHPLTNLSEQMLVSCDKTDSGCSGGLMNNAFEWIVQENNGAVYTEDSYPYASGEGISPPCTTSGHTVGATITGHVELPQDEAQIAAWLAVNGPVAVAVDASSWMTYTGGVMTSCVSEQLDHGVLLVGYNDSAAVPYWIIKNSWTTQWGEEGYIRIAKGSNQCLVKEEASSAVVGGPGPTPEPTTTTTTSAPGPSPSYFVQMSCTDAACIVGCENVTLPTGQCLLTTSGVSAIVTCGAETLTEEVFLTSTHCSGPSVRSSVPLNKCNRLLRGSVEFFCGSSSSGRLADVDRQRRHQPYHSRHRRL
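15 min RT preincubation of 1.5 nM cruzain with compound, then 2 uM Z-FR-AMC added; kinetic AMC fluorescence, 60 s delta. Triton X-100 0.01%, pH 5.5.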
Cruzain noTriton – qHTS Assay for Promiscuous and Specific Inhibitors of Cruzain (without detergent). Potency, µM, for inactives: max response, negative = inhibition, usual class: inhibitors. purified cruzain, Z-FR-AMC fluorescence, no detergent. AID 1476, 2009. actives 2.3% (n = 200,000). Cruzipain (Trypanosoma cruzi), P25779;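 further: plate controls were enzyme without inhibitor for no effect and buffer without enzyme for full effect; nearly all actives have a fitted effect of over 40% in size; top concentration of the series not given in the record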
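Purified cruzain at 1.5 nM, pre-incubated 15 min with compound at room temperature in 100 mM sodium acetate pH 5.5, 5 mM DTT, 0.00005% Triton X-100. Reaction started with 2 uM Z-FR-AMC; AMC fluorescence increase over 60 s gives rate.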
RE007 growth inh – qHTS Assay for Inhibitors of the HIV-1 protein Vpr; actives 0.21% (n = 360,000); S. pombe RE007 Vpr strain, BacTiter-Glo ATP luminescence, 24 h; control for the full effect not named in the record; Potency, µM (doses to about 92.2 µM), without a hit: at the top dose activity change, negative = less growth; active = well fitted falling curve with a large enough effect; inconclusive = small, poorly fitted or top-dose-only effect; inactive = no such curve, though single readings can be large or run the other way;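 further: on the % scale 0 is the no-effect control and ±100 the full control effect; nearly all actives have a fitted effect of over 50% in size; the assay follows cell death caused by Vpr and the record does not say whether a fall means rescue or toxicity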
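Fission yeast strain RE007, carrying one chromosomally integrated HIV-1 vpr copy, was seeded at OD 0.01 in PMG+AL medium with 23 nL pinned compound. After 24 h at 30 °C and 99% humidity, viability was read by BacTiter-Glo luminescence.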
The depositor's hits bear a star; u = inconclusive; x = not tested or not shown; & = joins results of further samples; [ ] = remark or other dose. Unless noted, the call rests on the fitted dose curve; in most records, active means well fitted curve in the direction sought with a large enough effect; inconclusive means small, poorly fitted or top-dose-only effect, or another doubt; inactive means no such curve, though single readings can be large; an effect the other way counts as inactive or inconclusive. Potency means the concentration at half of the fitted maximal effect.

SMILES	2A StopGo	SARS PLpro yeast	NS1 function inh	Lassa entry inh	Marburg entry inh	Cruzain Triton	Cruzain noTriton	RE007 growth inh
Cc1nc(SCC(=O)NCc2ccccc2)c2oc3ccccc3c2n1	15%	6%	-1%	-8%	-17%	5.7%	18%	2%
CC1=NOC2(C1)N(C)c1ccccc1C2(C)C (stereo not drawn)	0%	4%	-3%	6%	1%	4.6%	4%	7%
COc1nc(N)nc(NC(=O)c2cccs2)c1N=O	u	x	x	10%	-17%[46.1 µM]	x	x	u
CCC1CCCCN1CCCNC(=O)c1ccc(N2CCCC2=O)cc1 (stereo not drawn)	-8%	2%	7%	1%[46.1 µM]	u	x	x	1%
O=C(NCc1ccccn1)c1ccc(Cn2cc(Br)cn2)o1	x	0%	9%	-26%	5%	2.0%	1%	6%
O=C(NCc1ccco1)C1CCN(C(=O)c2ccc([N+](=O)[O-])cc2)CC1	-3%	3%	10%	2%	-16%	x	x	-7%
CCN(CC)CCN1C(=O)C(O)=C(C(=O)c2cc3cccc(OC)c3o2)C1c1ccc(F)cc1 (stereo not drawn)	-9%	0%	1%	-19%	-1%[46.1 µM]	x	x	-8%
Cc1ccccc1-n1nc2c(c1NC(=O)c1c(-c3ccccc3Cl)noc1C)CSC2	x	10%	7%	-1%	u	3.9%	-29%	-2%
Cc1cc(-c2nn(C)c(=O)c3ccccc23)ccc1CNC(=O)NC1CCCCC1	-6%	0%	0%	u	-10%[46.1 µM]	x	x	9%
N/C(Cn1cncn1)=N\NC(=O)C(=O)Nc1ccccc1	46%[activator]	-1%	6%	u	1%	x	x	1%
CCc1ccc(CNC(=O)CCSCc2ccccc2F)cc1	-6%	x	x	19%[46.1 µM]	x	-0.4%	-6%	x
CCOC(=O)CCCCCCCCC(=O)Nc1ccc(-n2[nH]c(=O)cc2C)cc1	-15%	x	x	9%	8%	x	x	17%
CCS(=O)c1scc(-c2ccc(Cl)cc2)c1C#N (stereo not drawn)	-9%	-1%	-6%	x	x	x	x	11%
Cc1ccc(NC(=O)C(Cc2ccccc2)n2cccc2)cc1C (stereo not drawn)	-9%	x	x	x	-25%[46.1 µM]	-6.1%	11%	x
C=CCN(c1ccccc1OC)S(=O)(=O)c1cccc(C(=O)NCC(c2ccc(OC)cc2)N2CCCC2)c1 (stereo not drawn)	12%	x	x	u	u	x	x	2%
CCOC(=O)c1[nH]c(CSc2nnc(-c3ccncc3)n2CCOC)c(C(=O)OCC)c1C	5%	3%	-11%	0%	0%	-1.5%	15%	-6%
COc1cccc(N2CCN(C(=O)CCCCCn3c(=O)[nH]c4ccccc4c3=O)CC2)c1	-22%	x	x	u	x	-0.4%	-1%	x
CCn1nnc2cc(C(=O)NCCc3ccccc3F)ccc21	-17%	0%	-1%	1.1µM*	6.3µM*	x	x	-6%
CN(C)c1ccc(/C=C2\CCCc3c2nc2ccccc2c3C(=O)O)cc1	46%[activator]	1%	-4%	u	9%[46.1 µM]	x	x	11%
CCCCC(=O)N(CCC)CCC	-4%	1%	6%	-12%	-1%[46.1 µM]	x	x	-3%

Of the compounds above, these have a thiophene ring, fused or not.
SMILES	2A StopGo	SARS PLpro yeast	NS1 function inh	Lassa entry inh	Marburg entry inh	Cruzain Triton	Cruzain noTriton	RE007 growth inh
COc1nc(N)nc(NC(=O)c2cccs2)c1N=O	u	x	x	10%	-17%[46.1 µM]	x	x	u
CCS(=O)c1scc(-c2ccc(Cl)cc2)c1C#N (stereo not drawn)	-9%	-1%	-6%	x	x	x	x	11%

The listing continues:
SMILES	2A StopGo	SARS PLpro yeast	NS1 function inh	Lassa entry inh	Marburg entry inh	Cruzain Triton	Cruzain noTriton	RE007 growth inh
COc1ccc(N2CC(C(=O)N[C@@H](C)C(=O)NC(C)c3ccccc3)CC2=O)cc1 (stereo partly drawn)	-7%	0%	-2%	-2%[46.1 µM]	-3%[46.1 µM]	x	x	-6%
Nc1cc2[nH]c(=O)c3ccccc3c2cc1[N+](=O)[O-]	-13%	x	x	-20%[46.1 µM]	-29%	x	x	u
O=C(Nc1ccccc1OC(F)F)C1CC(=O)N(Cc2ccccc2)C1 (stereo not drawn)	-4%	3%	x	12%	-2%	x	x	-6%
Cc1cc(C(C)(C)C)cc(C)c1Cn1c2[n+](c3ccc(C(F)(F)F)cc31)CCCCC2	28µM*	-10%	4%	13µM*	u	x	x	-9%
COc1cccc(-n2c(/C=C/c3cccc(C)c3)nc3ccccc3c2=O)c1	-27%	x	x	-4%[46.1 µM]	x	0.2%	-9%	x
N#Cc1cnc2sc3ccccc3n2c1=N	39%[activator]	-4%	-68%	15%	17%	-9.1%	-6%	-13%
COc1ccc(-n2c(=O)[nH]c3cc(C(=O)NCCc4ccc(OC)c(OC)c4)ccc3c2=O)c(OC)c1	-15%	0%	0%	6%[46.1 µM]	-2%[46.1 µM]	x	x	1%
Cc1cc(C)cc(NC(=O)CSc2nnc(CNC(=O)c3ccco3)o2)c1	-3%	3%	-2%	4%	1%[46.1 µM]	x	x	5%
COc1ccc(C(CNC(=O)c2ccc(S(=O)(=O)N(C)C)cc2)N2CCCC2)cc1 (stereo not drawn)	-6%	2%	13%	-2%	11%	x	x	-10%
COCCn1c(SCC(=O)Nc2cccc(F)c2)nc2c([nH]c3ccccc32)c1=O	24%	-3%	6%	2%	-5%	x	x	-10%
COc1ccc(-c2noc(CC(=O)N(C)c3ccccc3F)n2)cc1	-7%	x	x	-5%[46.1 µM]	x	-2.2%	-13%	x
COC(=O)C(N)Cc1ccc(O)cc1 (stereo not drawn)	-14%	1%	4%	-19%	-7%	12%	-2%	15%
O=C(NCc1ccccc1F)C1CCCN(S(=O)(=O)c2ccc(-n3cnnn3)cc2)C1 (stereo not drawn)	u	2%	7%	-16%	8%[46.1 µM]	x	x	-7%
Cc1ccc(OCC(=O)Nc2ccc(Cl)cc2C(=O)c2ccccc2)cc1	8%&-8%	1%	-1%	-5%[46.1 µM]	7%&7%	0.6%&-5.9%	-4%&10%	12%
Cc1cccc(-n2c(=O)c3c(c4cc(C)ccc4n3C)n(CC(=O)N3CCCC3)c2=O)c1	-6%	x	x	1%[46.1 µM]	x	1.7%	-11%	x
COc1ccc2c(c1)C(=O)/C(=C/C=C/c1ccccc1)CC2	6%	3%	-13%	-3%	1%	-1.5%	u	-14%
CN1C(=O)C2C=CC1C1C(=O)N(c3ccccc3)C(=O)C21 (stereo not drawn)	64%[activator]	19%	-10%	u	13%	4.8%	1%	-21%
COc1ccc(Cl)cc1NC(=O)CSc1ccc(-c2sc(C)nc2C)nn1	u	x	x	-4%[46.1 µM]	x	-4.0%	-3%	x
O=C(Nc1ccc2nn(-c3ccccc3)nc2c1)c1ccc2c(c1)OCO2	-27%	-3%	-4%	-19%	-2%	-0.6%	u	13%
C=CCOc1ccc(/C=C2\SC(=Nc3cccnc3)NC2=O)cc1	22%	0%	4%	3.5µM*	u	x	x	14%
O=C(O)c1ccc2c(=O)n3cc(C(=O)c4ccccc4O)cc(Cl)c3nc2c1	0%	0%	u	x	x	x	x	16%
Cc1ccc(C(=O)Oc2coc(CSc3nnc(NC(=O)c4cccs4)s3)cc2=O)cc1C	1%	13%	u	9%	10%	-2.7%	25µM*	13%
Cc1ccc(NC(=O)Nc2ccc3c(c2)CCC3)c(C)c1	5%	u	8%	8%[46.1 µM]	6%[46.1 µM]	x	x	0%
CC(C)COc1cc(=O)[nH]c(SCC(C)C)n1	u	x	-5%	u	-26%	-6.1%	-13%	-5%
COc1ccc(NC(=O)CCc2nc3cccnc3n2-c2ccccc2)c(OC)c1	-18%	x	x	6%[46.1 µM]	18%[46.1 µM]	-2.9%	-8%	x
O=C(NC(=S)Nc1ccc2c(c1)OCCO2)c1ccccc1F	15%	0%	-1%	u	u	x	x	9%
Cc1ccc(-c2ccc(C3C(C#N)=C(N)Oc4n[nH]c(C)c43)o2)cc1 (stereo not drawn)	22%	-29%	-53%	18%	-4%	-11%	-10%	11%
CCCN(C(=O)Cn1nc(C)c([N+](=O)[O-])c1C)c1c(N)n(Cc2ccccc2)c(=O)[nH]c1=O	-7%	-2%	x	u	15%	x	x	-5%
COc1ccc(C2N(C(=O)N(C)C)CCN2S(=O)(=O)c2ccc(OC)cc2)cc1 (stereo not drawn)	9%	1%	2%	x	u	x	x	-12%
Cc1nn(CC(=O)N2CCN(c3ccccc3F)CC2)c(=O)c2cccn12	-26%	x	x	u	-25%[46.1 µM]	-3.3%	-21%	x
O=C(CCC(=O)N(CC(=O)NC1CCCCC1)CC1CCCO1)Nc1nccs1 (stereo not drawn)	0%	0%	1%	15%	-1%[46.1 µM]	x	x	-5%
COc1ccccc1N1CCN(C(=O)c2ccc3c(c2)N(Cc2ccccc2)C(=O)c2ccccc2S3(=O)=O)CC1	4%	x	x	-23%[46.1 µM]	8.9µM*	0.4%	27%	x
CCN(CC(=O)Nc1ccc2c(c1)OCCO2)C(=O)/C=C/c1cccc(Br)c1	33%[activator]	-32%	x	16%	13%	x	x	3%
COc1ccc(OC)c(/C=N/N=C(\N)c2nonc2N)c1	28%	-2%	6%	x	x	x	x	2%

3 entries from above, with values under each structure:
Second line of a record – 2A StopGo | SARS PLpro yeast | NS1 function inh | Lassa entry inh | Marburg entry inh | Cruzain Triton | Cruzain noTriton | RE007 growth inh
> Cc1ccc(NC(=O)Nc2ccc3c(c2)CCC3)c(C)c1
    5% | u | 8% | 8%[46.1 µM] | 6%[46.1 µM] | x | x | 0%
> O=C(CCC(=O)N(CC(=O)NC1CCCCC1)CC1CCCO1)Nc1nccs1 (stereo not drawn)
    0% | 0% | 1% | 15% | -1%[46.1 µM] | x | x | -5%
> Cc1nn(CC(=O)N2CCN(c3ccccc3F)CC2)c(=O)c2cccn12
    -26% | x | x | u | -25%[46.1 µM] | -3.3% | -21% | x

Compound activity from PubChem BioAssay.

Not a hit list; about 4.6% have a hit in one of these screens.
